From PubChem BioAssay
Calb FLC: C. albicans growth inhibition with fluconazole, primary screen, CaCi-2 strain, Alamar Blue fluorescence | AID 1979, 2009 | C. albicans CaCi-2 (fluconazole-resistant clinical isolate) + fluconazole, 48 h | growth inhibition, % (no concentration beside the values) | actives 0.57% (n = 300,000);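 active means most replicates above 75%; inconclusive means exactly half above 75%; inactive means most below 75%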;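 further: all wells also contain fluconazole at 8 µg/ml as a sub-toxic cotreatment; 0% = median of DMSO wells and 100% = median of geldanamycin control wells; wells of about 8 µL received 7.5 nL stock; the first replicate is given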
rRNA inh HTS: reduced GFP signal of wild-type E. coli, primary screen, bacterial rRNA inhibitor project, GFP/RFP fluorescence, OD600, single point. E. coli WT GFP vs humanized-ribosome RFP mutants, 24 h; hits give low values; DMSO median 0, no signal -100. GFP signal change (wild-type ribosome), % (no concentration beside the values). actives 1.6% (n = 350,000). AID 720706, 2013;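 active means significant combined selectivity score with lowered wild-type GFP, culture density cut under 30%, mutant RFP and density less affected; inactive means any of these conditions unmet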; further: one replicate is shown; some compounds called inactive have numbers as strong as hits
Vif TR-FRET: inhibitors of Vif binding to APOBEC3G peptide, primary screen, biochemical, TR-FRET, GST-Vif 1-94, biotin-A3G peptide, dose response retest (AID 1117319); Virion infectivity factor (Human immunodeficiency virus type 1 group M subtype B (isolate …; TR-FRET GST-Vif / biotin-A3G peptide binding; higher % means a stronger effect; test concentration not given here; strong numbers were not always called active; one-dose inhibition, %; IC50 in µM for titrated hits; actives 0.57% (n = 260,000);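 active means above the screen mean plus three standard deviations and confirmed in dose response; inconclusive means results disagree or hit not tested in dose response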;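 further: Vif residues 1-94 fused to GST binding biotinylated APOBEC3G peptide 110-148; 0% = full assay without inhibitor and 100% = GST in place of GST-Vif; retest series ran down from 100 µM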
AF4-AF9 inh: inhibitors of AF4 peptide binding to AF9, primary screen, biochemical, AlphaScreen, biotin-AF4 peptide, FLAG-AF9, single point. Protein AF-9 (Homo sapiens), P42568. actives 0.47% (n = 350,000). inhibition, % at 10 µM. AID 651704, 2012;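 active means every replicate reaching a set inhibition limit, whatever the replicate mean, cut at about 25% in these data; inconclusive means mean inhibition reaches that limit but some replicates miss it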;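 further: 0% = plate neutral control median and 100% = total signal loss; the record names both 10 and 1 µM as test concentration; the first replicate is given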
Target sequence (P42568 whole entry, looked up): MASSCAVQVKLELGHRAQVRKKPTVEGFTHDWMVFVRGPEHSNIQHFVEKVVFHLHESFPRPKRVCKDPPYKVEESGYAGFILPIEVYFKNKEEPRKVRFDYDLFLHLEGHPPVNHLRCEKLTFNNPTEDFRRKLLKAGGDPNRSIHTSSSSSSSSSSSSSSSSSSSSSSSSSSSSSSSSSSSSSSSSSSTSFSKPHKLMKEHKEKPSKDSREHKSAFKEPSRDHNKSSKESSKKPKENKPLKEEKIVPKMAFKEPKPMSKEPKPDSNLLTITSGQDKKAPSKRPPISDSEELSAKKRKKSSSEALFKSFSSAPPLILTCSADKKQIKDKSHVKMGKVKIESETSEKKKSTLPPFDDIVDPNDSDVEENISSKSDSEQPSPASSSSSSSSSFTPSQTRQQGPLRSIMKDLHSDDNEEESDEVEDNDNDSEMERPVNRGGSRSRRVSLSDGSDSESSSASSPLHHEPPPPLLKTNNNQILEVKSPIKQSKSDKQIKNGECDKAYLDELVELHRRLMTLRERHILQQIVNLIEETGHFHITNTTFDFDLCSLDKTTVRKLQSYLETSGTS
RanGTP-Imp inh: inhibitors of RanGTP-importin-beta interaction, primary screen, biochemical, FRET, CFP-Ran, YFP-importin-beta, homogeneous | Ran GTPase (GTP-bound) - importin-beta complex | cell-free CFP-Ran/YFP-importin-beta FRET ratio | inhibition, % (no concentration beside the values) | actives 1.1% (n = 300,000);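 active means most replicates above 15%; inconclusive means exactly half above 15%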;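 further: 0% = DMSO wells and 100% = Ran loaded with GDP instead of GTP; wells of about 40 µL received 100 nL stock; the first replicate is given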
Bfl-1 A1 inh: caspase 3/7 activation in MEF A1-2A-BIM cells, primary screen, A1 inhibitor project, cell-based, luminescence, HTS; actives 0.066% (n = 330,000); AID 2462, 2010; Caspase-Glo 3/7 luminescence, 3 h; percent of clofoctol response, vehicle zero; caspase activation, % (no concentration beside the values);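 active means over half of replicate activation scores above 10%, or exactly half above 10 with the replicate mean above 10; inconclusive means replicate mean below 10 yet half the replicates above 10; inactive means over half of replicates below 10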;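 further: wells of about 30 µL received 50 nL stock; many hits fall short of the cut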
Beta apoptosis: inhibitors of cytokine-induced beta cell apoptosis, primary screen, luminescence | INS-1E cytokine-induced death, ATP luminescence, 48 h; percent of positive-control rescue, neutral wells zero | protection from apoptosis, % (no concentration beside the values) | actives 0.8% (n = 300,000) | AID 435005, 2010;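 active means all replicates at 75% or more, or half of them and the mean; inconclusive means half reach 75% but not the mean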;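 further: 0% = cytokine-treated negative control wells and 100% = positive control rescue; higher means more ATP so stronger rescue from cytokine killing; wells of about 40 µL received 100 nL stock; the first replicate is given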
T cruzi inh: inhibitors of intracellular T. cruzi growth, primary screen, luminescence, NIH3T3 host cells; inhibition, % (concentration not given with the values); T. cruzi beta-gal in NIH3T3, 90 h; actives 1.4% (n = 300,000);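 active means mean inhibition across valid replicates above about 55%, limit read from the data; inconclusive means mean below that limit but half or more replicates reach it; inactive means mean below it, under half of replicates reach it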;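 further: signal also drops with host cell toxicity which is not excluded here; 0% = plate median of DMSO wells and 100% = zero luminescence signal; higher percent means less beta-gal luminescence so fewer parasites; stock transfer was 50 nL into about 50 µL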
rRNA inh HTS OD600: further read-out of rRNA inh HTS, marked with its call; OD600 change, %; measured here: OD600 growth;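 optical density of the mix in the first replicate; 0 = DMSO median and -100 = no signal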
rRNA inh HTS RFP: recorded beside rRNA inh HTS, whose call it bears; RFP signal change, %; measured here: RFP humanized mutant strains;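 first replicate; 0 = DMSO median and -100 = no signal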
The depositor's hits bear a star; ? = inconclusive; nt = not tested or not shown; & = joins results of further samples. Only part of the results is shown; count on the stated rates, not on these rows.

SMILES	Calb FLC	rRNA inh HTS	rRNA inh HTS OD600	rRNA inh HTS RFP	Vif TR-FRET	AF4-AF9 inh	RanGTP-Imp inh	Bfl-1 A1 inh	Beta apoptosis	T cruzi inh
CSc1nc(-c2ccccc2)nc(NC(C)=O)c1C(C)=O	-16	10	12	-2.8	10%	1.1	-0.2	0.7	0	-9
O=C(O)c1nn(Cc2nc3ccccc3o2)c(=O)c2ccccc12	-1	2	4	-0.9	0%	0.3	-0.7	0.6	1	-9
CCOc1ccccc1NC(=O)CCN1CCN(S(=O)(=O)c2ccc(Br)cc2)CC1	-9	nt	nt	nt	-11%&-3%	nt	2.1	-0.1	4	22
COc1cc(C2C(C(=O)c3cccs3)=C(O)C(=O)N2Cc2ccco2)cc(OC)c1OC (stereo unspecified)	-7	nt	nt	nt	23%	nt	1.8	-0.3	-4	-3
COc1cc(OC)c(OC)cc1/C=N/n1c(COc2ccccc2)n[nH]c1=S	-31	6	3	-2.2	nt	-0.7	-0.2	-1.1	11	9
Cc1cc(C)c(C#N)c(SCC(=O)OC2CCCCC2)n1	5	nt	nt	nt	-4%	nt	-1.1	0.2	-6	-7
NC(=O)C1CCN(C(=O)c2ccc(NS(=O)(=O)c3ccc(F)c(F)c3)cc2)CC1	nt	15	8	0.5	nt	0.5	nt	1.3	-9	nt
Cc1cc(C)c(N)c(C(=O)O)c1	1	6	0	0.3	29%	-1.1	1.2	0.2	0	-25
CCN(Cc1ccccc1)C(=O)CCc1nc(CN2CCN(C(=O)c3ccc([N+](=O)[O-])cc3)CC2)no1	-6	9	9	-1.1	nt	-1.5	2.9	-0.3	2	-7
Cc1ccc(C(=O)c2ccccc2C(=O)O)c(O)c1	-3	-5	-23	-5.8	4%	-4.8	1.1	1.1	-6	-3
COc1ccc(C2=NN(C(=O)CSc3nc4ccccc4s3)C(c3ccc(OC)cc3)C2)cc1 (stereo unspecified)	-4	nt	nt	nt	-8%	1.8	4.8	-0.4	10	14
CSCCC(NS(=O)(=O)c1cccc(C(F)(F)F)c1)C(=O)N(C)CCOc1ccc(Cl)cc1 (stereo unspecified)	7	-1	-2	0.3	-9%	0.8	-1.6	-0.9	nt	26
CCO[C@H]1OC(C(=O)N2CCN(Cc3ccccc3)CC2)=C[C@@H](c2coc3ccccc3c2=O)[C@@H]1CCCO	-36	-16	-12	-1.2	-6%	-18	-0.7	0.3	2	-3
O=C(NC1=NCCS1)C1CC(=O)N(c2ccc(F)cc2)C1 (stereo unspecified)	3	nt	nt	nt	-8%	nt	-2.2	-1.1	-6	-10
CCNC(=O)C1CCCN1C(=O)C(CCCN=C(N)N)NC(=O)C(CC(C)C)NC(=O)C(Cc1cn(Cc2ccccc2)cn1)NC(=O)C(Cc1ccc(O)cc1)NC(=O)C(CO)NC(=O)C(Cc1c[nH]c2ccccc12)NC(=O)C(Cc1cnc[nH]1)NC(=O)C1CCC(=O)N1 (stereo unspecified)	nt	nt	nt	nt	nt	nt	-1.9	0.4	-8	6
Cn1cccc1C(C#N)c1ccccc1C#N (stereo unspecified)	-2	5	1	1.1	33%	-1.5	0.0	0.3	2	-11
O=C(Nc1cccc(Oc2ccc3c(c2)C(=O)NC3=O)c1)c1cccs1	-4	-30*	-8.6*	7.7*	11%	4.7	6.4	-0.3	3	-14
Cc1nc(NC(=O)CSc2ccccc2N)sc1C	-9	9	4	-1.0	-3%	-16	-5.6	1.0	-7	-2
CCOc1ccc(Nc2cc(C)nc(-n3nc(C)cc3C)n2)cc1	26	nt	nt	nt	3%	nt	-1.7	1.5	91*	51
CCC(OC(=O)c1nsc(Cl)c1Cl)C(=O)NCC1CCCO1 (stereo unspecified)	-8	4	3	0.2	nt	0.6	3.2	0.1	-2	-5
O=C(N/N=C/c1ccccc1OCc1ccccc1)c1cccs1	-11	nt	nt	nt	8%	nt	?	-0.3	-5	-5
CC(C)c1cccc(-c2ccc3c(c2)S(=O)(=O)c2cccc(C(=O)O)c2C3=O)c1	nt	-42	-64	-30	nt	-5.9	nt	0.8	-4	nt
O=C(Nc1ccccc1)c1nc[nH]c1C(=O)NCCN(CCNC(=O)c1[nH]cnc1C(=O)Nc1ccccc1)CCNC(=O)c1[nH]cnc1C(=O)Nc1ccccc1	nt	-1	8	-0.6	nt	1.5	nt	0.2	-3	nt
COc1cccc(OCc2ccc(C(=O)NCC3CCCO3)cc2)c1 (stereo unspecified)	-11	nt	nt	nt	25%	nt	-0.8	0.5	4	8
O=C(c1ccsc1)N1CCCC(N2CCN(c3cccc(C(F)(F)F)c3)CC2)C1 (stereo unspecified)	-1	-10	-48	-4.4	nt	2.1	-3.6	0.8	2	-7
CC(=O)c1sc(NC(=O)CS(=O)(=O)c2ccccc2)nc1-c1ccccc1	1	-18	-27	0.6	-6%	1.1	4.6	-0.8	nt	-3
COc1ccc(NC(=O)c2cc3c([nH]c4ccccc43)c(C)n2)cc1	-3	4	1	0.6	-3%	-2.4	-7.0	-0.1	2	43
COc1ccc(/C=N/Nc2nc(Nc3ccccc3)nc(N3CCCC3)n2)cc1[N+](=O)[O-]	15	17	13	1.5	29%	1.9	-3.3	1.7	nt	29
COc1ccc(N2CCN(C(=O)CN3C(=O)COc4ccccc43)CC2)cc1	-3	7	10	0.5	nt	2.2	-0.5	1.3	-7	-10
Cn1c(SCC(=O)N2CCc3ccccc32)nnc1-c1ccc(S(=O)(=O)N2CCCC2)cc1	1	nt	nt	nt	nt	nt	-1.1	1.1	-1	13
O=C(NCc1ccc2c(c1)OCO2)c1ccc(COc2cccc(Cl)c2)o1	1	nt	nt	nt	11%	nt	5.6	-0.4	1	-5
O=C(c1ccc2nc3ccc(Cl)cc3c(=O)n2c1)N1CCOCC1	2	8	7	-1.4	-1%	nt	?	1.4	-10	-2
Cc1nc2ccc(Cl)cc2c(-c2ccccc2F)c1CC(=O)O	-4	-20	-15	-4.5	?	-6.5	1.1	-0.4	-2	-7
O=S(=O)(c1ccccc1F)N1CCN(CCOc2ccccc2)CC1	nt	-12	-12	-3.3	-9%	0.7	nt	-1.3	13	nt
CCCC(=O)Nc1ccc(Br)c(Cl)c1	6	nt	nt	nt	6%	nt	-3.0	-0.8	1	12
CC(=O)N1CCN(C(=O)c2ccc(OC3CCN(Cc4ccccn4)CC3)cc2)CC1	-3	6	-3	0.6	nt	0.2	3.3	0.0	4	3
CCc1c(C)nc2ncnn2c1N1CCC(C(=O)Nc2ccccc2)CC1	-10	nt	nt	nt	3%	nt	-5.0	0.1	-6	-7
COc1ccc(C(=O)NNC2CC(=O)N(Cc3ccc(Cl)cc3)C2=O)cc1OC (stereo unspecified)	-15	nt	nt	nt	0%	nt	-0.5	1.0	nt	-4
COc1cccc(NC(=O)Nc2cc(C(=O)O)ccc2N2CC3CC(C2)c2cccc(=O)n2C3)c1 (stereo unspecified)	1	5	23	-3.8	-2%	-1.9	2.8	0.5	3	5
COc1nnc(-c2ccc(C)c(S(=O)(=O)NC(C)C)c2)c2ccccc12	18	-13	-14	-1.6	-10%	-2.4	?	-1.1	-6	-2
Cn1c(Cn2c(=O)sc3ccccc32)nnc1SCC(N)=O	0	3	4	-1.1	31%	-2.3	-4.0	-0.9	-4	2
Cc1ccc2nc(-c3ccncc3)cc(C(=O)NCc3ccccc3F)c2c1	-2	4	13	5.2	1%	-0.6	3.9	-0.2	2	15
C=CCN(c1ccc(C(N)=O)cc1)S(C)(=O)=O	2	nt	nt	nt	18%	nt	2.2	-0.2	-12	-10
O=C(Cc1cccc2ccccc12)Nc1ccc2c(c1)C(=O)NC2=O	-21	-3	-3	3.7	-1%	-1.7	6.4	0.3	-3	-9
N/C(=N\OC(=O)c1ccccc1[N+](=O)[O-])c1ccccn1	?	12	2	0.8	-10%	-1.9	4.2	1.9	6	15
Fc1ccc(CNn2cnnc2SCc2ccc(F)cc2)cc1	-30	nt	nt	nt	-4%	nt	1.7	0.8	nt	-14
O=C(CN1CCOCC1)Nc1nc(-c2ccc(Cl)cc2)cs1	-5	-9	-11	0.9	-1%	-1.1	-1.1	-0.6	nt	-2
CC(=O)c1ccc2c(c1)c1ccccc1n2CC(C)C	11	nt	nt	nt	15%	nt	7.6	-1.0	-3	18
C1=C(c2ccccc2)Nc2nnnn2C1	-2	nt	nt	nt	-3%	nt	-0.4	0.3	nt	3
Clc1cccc(Cl)c1CSc1nnc([C@@H]2CCCN2)o1	-21	-16	-11	2.3	-9%	1.7	-2.3	-0.2	-6	-2
CN(NC(=O)c1ccccc1F)c1ccc([N+](=O)[O-])cn1	1	9	3	62	12%	-2.0	?	1.0	-4	-4
Cc1cc(NC(=O)CSc2nc(=O)n3cccc(C)c3n2)no1	-1	3	4	-0.9	-8%	-6.5	5.7	0.9	nt	-9
CCCOC(=O)c1ccc(Cl)c(NC(=O)c2ccc(-c3ccccc3)cc2)c1	-4	nt	nt	nt	14%	nt	-3.4	-1.7	4	-4
COC(=O)CN1C(=O)[C@H]2[C@@H](C3CC3)N3C(=O)CN(Cc4ccccn4)C(=O)[C@@]3(Cc3ccccc3)[C@H]2C1=O	-3	6	3	-16	nt	-5.0	-0.7	0.8	-2	-7
CN(CC(=O)Nc1ccc(Cl)cc1)C(=O)c1ccc(NS(=O)(=O)c2ccc3[nH]c(=O)[nH]c3c2)cc1	-2	-3	8	2.1	2%	2.6	-0.8	-0.8	nt	-9
O=C(N1CCN(c2ccccc2)CC1)C(F)(F)C(F)(F)F	12	nt	nt	nt	6%	nt	3.5	0.3	-4	-17
Cc1cc(C(=O)CSc2nn(-c3ccccc3)c(=S)s2)c(C)n1Cc1ccco1	-1	nt	nt	nt	4%	nt	0.2	0.4	-3	40
CC1(C(=O)NC23CC4CC(CC(C4)C2)C3)CC1(Cl)Cl (stereo unspecified)	-32	nt	nt	nt	17%	nt	0.0	0.3	8	-6
COc1ccc(/C=C2\CCCc3c2nc2ccc(C)cc2c3C(=O)O)cc1O	-1	-27	-63	-7.8	nt	-1.5	6.4	0.7	-2	-4
COc1cc(CCC(=O)OCC(=O)NCc2ccc(Cl)cc2)cc(OC)c1OC	29	7	12	0.8	5%	2.6	?	-0.1	0	-11
CCOn1c(=O)c(C)[n+]([O-])c2ccccc21	-5	nt	nt	nt	8%	nt	-0.9	-0.6	-3	-28
